Compound activity (PubChem BioAssay)
GIV Gai3 FP: blocks GIV peptide binding to rat Galpha-i3; 210,000 compounds, 0.42% hits; AID 1224905; Galpha-i3/FITC-GIV peptide fluorescence polarization, 90 min; stronger effect = lower value; scaled: aluminum fluoride 0%, vehicle 100%; percent of control (FP), % (test concentration not listed); P08753;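 active = replicate mean at 85% of control or lower, very high polarization wells dropped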;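 note: wells of about 15 µL received 100 nL stock; the first replicate is given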
Target sequence (P08753 whole entry, looked up): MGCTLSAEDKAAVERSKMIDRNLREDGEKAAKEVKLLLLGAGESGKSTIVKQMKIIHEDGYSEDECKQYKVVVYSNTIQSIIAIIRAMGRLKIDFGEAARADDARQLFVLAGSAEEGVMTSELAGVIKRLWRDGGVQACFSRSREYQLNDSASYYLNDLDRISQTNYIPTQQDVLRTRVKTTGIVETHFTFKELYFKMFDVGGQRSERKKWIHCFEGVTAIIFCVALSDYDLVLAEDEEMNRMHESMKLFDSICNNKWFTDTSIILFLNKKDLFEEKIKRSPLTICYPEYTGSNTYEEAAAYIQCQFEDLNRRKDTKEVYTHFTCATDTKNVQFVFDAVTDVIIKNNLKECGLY
Sa growth inh: blocks Staphylococcus aureus growth; S. aureus RN4220 growth, OD600, 20 h, 42 °C; stronger effect = lower value; relative growth, % (concentration not given with the values); 170,000 compounds, 0.53% hits; AID 720641;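 active = growth at 42 °C up to 50% and 20 or more points under that at 30 °C, or under 10% at both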;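 note: 300 nL library stock went into each well; scaled to the means of positive and negative controls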
HCMV NEC inh: disrupts HCMV UL50-UL53 complex binding | HTRF UL50-UL53 interaction, normalized percent inhibition | inhibition, % (concentration not given with the values) | 190,000 compounds, 0.15% hits;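 active = both replicates at 50% or more, plus weaker picks with an unusually low signal ratio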;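 note: stock transfer was 100 nL into about 20 µL; 0% = negative control wells and 100% = wells with untagged competitor protein; inactives centre near -12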
Sa growth inh second temp: recorded beside Sa growth inh, whose call it bears; relative growth, %; measured here: growth at 30 °C;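 optical density after 20 h as mean of two plates; 100% = untreated growth and lower means inhibition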
Active calls of the source: *; . = no result given; & = joins results of further samples.

item	canonical_smiles	GIV Gai3 FP	Sa growth inh	Sa growth inh second temp	HCMV NEC inh
1	CC1CC(=O)C2=C(C1)Nc1ncnn1C2c1ccccc1 (stereo not given)	102	114	97	.
2	Cc1cc(C)cc(NC(=O)N2CCN(c3cc(=O)n4nc(-c5ccccc5C)sc4n3)CC2)c1	105	.	.	12
3	C=CCN1CC(c2nc3ccccc3n2CC(O)COc2cccc(C)c2)CC1=O (stereo not given)	100	.	.	9
4	O=C(Cn1cc(C(=O)C2CCCCC2)c2ccccc21)NCC1CCCO1 (stereo not given)	105	87	81	2
5	O=C(NCc1ccccc1)NC(c1ccccc1)c1nnc(-c2ccccc2)o1 (stereo not given)	106	107	99	-9
6	COc1cccc(Nc2ncnc3sc(C)c(S(=O)(=O)N4CCCCC4)c23)c1	106	.	.	-34
7	Cc1ccc(OCC(=O)Nc2c(C(=O)c3ccc(Cl)cc3)oc3ccccc23)cc1C	110	94	102	17
8	Cc1ccc(NC(=O)c2cnn3c2NC(c2ccccc2)=CC3c2ccccc2)cc1 (stereo not given)	99	106	84	.
9	CC(C)c1ccc(NC(c2nnc(-c3ccccc3)o2)c2ccc(F)cc2Cl)cc1 (stereo not given)	101	77	82	.
10	CCOC(=O)c1[nH]c(C)c(C(=O)NC(CC)Cc2ccccc2)c1C (stereo not given)	97	100	88	-8
11	Cc1ccc(S(=O)(=O)Nc2cncc(C(=O)NC3CCCCC3C)c2)cc1 (stereo not given)	105	.	.	-6
12	CC1CCCN(S(=O)(=O)c2cc3c4c(c2)CC(=O)N4CCC3)C1 (stereo not given)	95	107	84	.
13	CCCn1c2ccccc2c2nnc(SCOC(=O)CN3C(=O)c4ccccc4C3=O)nc21	99	88	79	-10
14	O=C(NCCN1CCCCC1)c1cccn1-c1cccnc1	108	.	.	-21
15	COc1cccc(-c2nc(-c3ccc(Br)o3)no2)c1	105	97	93	.
16	Cn1cccc1/C=C1/SC(=S)N(c2ccc(C(=O)O)cc2)C1=O	196	85	60	-141
17	COc1ccc(C2=Nc3ccccc3N=C(SCC(=O)Nc3ccc4c(c3)OCO4)C2)cc1	105	.	.	-23
18	CSc1sc(C#N)c2c1C(=O)CC(c1ccccc1)C2 (stereo not given)	105	92	85	7
19	O=C(Nc1cccc(OCc2cc(=O)n3c4c(sc3n2)CCCC4)c1)c1ccc(F)cc1	114	99	98	9
20	O=C(O)c1cn(-c2ccc(F)c(F)c2)c2c(F)c(F)c(F)c(F)c2c1=O	104	95	74	17
21	Oc1c(Br)cc(Cl)cc1/C=N/c1ccccn1	111	42	14	-35
22	CN(CCCNC(=O)Cn1ncc2c([nH]c3ccccc32)c1=O)Cc1ccccc1	103	103	85	.
23	Cc1nnc(SCc2ccc(C#N)cc2)s1	98	101	98	-3
24	COc1ccc(C2=CC(c3cccs3)NC(=S)N2)cc1 (stereo not given)	.	123	102	0
25	COc1ccc(Cl)cc1NC(=O)CSc1nc2c(oc3ccccc32)c(=O)n1Cc1ccco1	99	97	88	-6
26	CCOC(=O)c1sc2nc(Cc3ccccc3)nc(NCc3cccs3)c2c1C	113	.	.	0
27	CCOC(=O)C1=C(C)Nc2nc3ccccc3n2C1c1ccccc1 (stereo not given)	105	103	87	.
28	CNC(C)c1nc2ccccc2s1 (stereo not given)	.	90	88	-14
29	Cc1c(N2CCC(C(=O)Nc3ccc4c(c3)OCCO4)CC2)c(=O)n(C)c(=O)n1-c1ccccc1	102	.	.	-28
30	COc1ccccc1NC(=O)C1=C(C)NC2=C(C(=O)CC(C)(C)C2)C1c1ccc(Cl)cc1Cl (stereo not given)	.	122	91	-11
31	CCCN(C(=O)c1c(C)oc2ncnc(N3CCOCC3)c12)c1ccc(Cl)c(Cl)c1	106	101	86	-13
32	O=C(COC(=O)c1cc2ccccc2oc1=O)c1ccccc1	100	120	95	.
33	CC(C)N1C(=O)C2C(c3ccco3)NN(Cc3ccccc3)C2C1=O (stereo not given)	101	58	61	8
34	Cc1cccc(/C=C2\CS/C(=C\c3cccc(C)c3)C2=O)c1	153	122	88	.
35	O=c1[nH]c(C2CCCN(S(=O)(=O)c3ccccc3)C2)nc2c1nnn2Cc1ccccc1Br (stereo not given)	101	106	71	-14
36	Cc1ccc(C2CC(=O)N(Cc3ccc(F)cc3)c3c2c(C)nn3-c2nc(C)cc(C)n2)cc1 (stereo not given)	96	112	89	-21
37	CC(=O)Nc1ccc(-c2nc(-c3ccccc3)c3ccccc3n2)cc1	97	.	.	-27
38	Cc1cc2c(c(=O)n1C)C(c1ccc(C(C)C)cc1)C(C#N)=C(N)O2 (stereo not given)	106	118	103	1
39	COc1ccc(NC(=O)CC2C(=O)N(c3ccc(OC)cc3)C(=O)N2C2CCCCC2)cc1 (stereo not given)	97	108	89	-26
40	Cc1cccc(C(=O)Nc2c3c(nn2-c2ccc(Cl)cc2)CS(=O)(=O)C3)c1	101	87	93	.
41	CCOc1ccc(CCNC(=O)c2ccc(Cl)c(-n3c(C)nc4cccnc43)c2)cc1OCC	106	.	.	3
42	CN(C(=O)c1ccc2c(Cl)c3c(nc2c1)CCCC3)C1CCCCC1	107	108	88	.
43	CCC(O)c1nc2ccccc2n1C (stereo not given)	107	109	100	16
44	CC(=O)N=C1SC2CS(=O)(=O)CC2N1c1ccc2c(c1)OCO2 (stereo not given)	103	108	92	8
45	CCCCNc1ccc(C(F)(F)F)cn1	101	96	104	3
46	COc1ccccc1NS(=O)(=O)c1cn(C)c(C)n1	101	109	95	.
47	CCCN1CCN(c2ncc3c(n2)CCN(Cc2ccc(OC)c(OC)c2OC)C3)CC1	107	93	93	.
48	Cc1ccc2nc(N(Cc3cccnc3)C(=O)C3COc4ccccc4O3)sc2c1 (stereo not given)	102	143	79	.
49	CCn1c(-c2cc(Br)cc(OC)c2O)nc2cc(S(=O)(=O)N(C)C)ccc21	.	71	92	16
50	COc1ccc(-c2noc(-c3ccc(NC(=O)C4CC(=O)N(Cc5ccccc5)C4)cc3)n2)cc1 (stereo not given)	100	.	.	4

An excerpt from above in order of SMILES length, low to high:
item	canonical_smiles	GIV Gai3 FP	Sa growth inh	Sa growth inh second temp	HCMV NEC inh
32	O=C(COC(=O)c1cc2ccccc2oc1=O)c1ccccc1	100	120	95	.
33	CC(C)N1C(=O)C2C(c3ccco3)NN(Cc3ccccc3)C2C1=O (stereo not given)	101	58	61	8
41	CCOc1ccc(CCNC(=O)c2ccc(Cl)c(-n3c(C)nc4cccnc43)c2)cc1OCC	106	.	.	3

The listing picks up; the five compounds before the break are reprinted first.
item	canonical_smiles	GIV Gai3 FP	Sa growth inh	Sa growth inh second temp	HCMV NEC inh
46	COc1ccccc1NS(=O)(=O)c1cn(C)c(C)n1	101	109	95	.
47	CCCN1CCN(c2ncc3c(n2)CCN(Cc2ccc(OC)c(OC)c2OC)C3)CC1	107	93	93	.
48	Cc1ccc2nc(N(Cc3cccnc3)C(=O)C3COc4ccccc4O3)sc2c1 (stereo not given)	102	143	79	.
49	CCn1c(-c2cc(Br)cc(OC)c2O)nc2cc(S(=O)(=O)N(C)C)ccc21	.	71	92	16
50	COc1ccc(-c2noc(-c3ccc(NC(=O)C4CC(=O)N(Cc5ccccc5)C4)cc3)n2)cc1 (stereo not given)	100	.	.	4
51	CN1CCN(Nc2ncnc3sc4c(c23)CCCC4)CC1	.	79	94	-6
52	S=C(c1ccc(Br)cc1)N1CCCC1	.	101	85	-13
53	Cc1ccccc1C1CC(=O)Nc2cc3c(cc21)OCO3 (stereo not given)	104	.	.	-4
54	CC(=O)Nc1ccc(-c2ccc(NC(C)=O)cc2)cc1	106	103	89	-18
55	CCOC(=O)Oc1c(Cl)cc2oc(=O)sc2c1Br	.	18	2	-13
56	CN(C(=O)CSc1nc2ccc(NC(=O)c3cccc(F)c3)cc2s1)c1ccccc1	100	98	86	-20
57	O=C(Nc1ccccn1)C1CCCN1S(=O)(=O)c1ccc(Cl)cc1 (stereo not given)	107	103	100	-29
58	CCCc1cc(-n2nnc3ccccc32)n2c(nc3ccccc32)c1C#N	109	90	94	-31
59	O=C(O)c1cccc(NC(=O)c2cc3ccccc3o2)c1	.	98	74	-8
60	Cc1ccc(C(=O)OCC(=O)N2CC3(C)CC2CC(C)(C)C3)cc1NC(=O)c1ccco1 (stereo not given)	.	98	91	8
61	O=C(NNc1ccccc1)Nc1ccc2snnc2c1	101	87	65	-17
62	O=C(Cc1ccc(Cl)cc1)NCCc1csc2nc(-c3ccccc3F)nn12	105	92	89	.
63	Cc1cccc(-n2c(CC#N)n[nH]c2=S)c1	108	101	86	-10
64	COc1ccc(NC(=O)CSc2nc(-c3ccccc3)nc3cc(=O)[nH]n23)cc1	96	91	84	.
65	CCn1c(=O)c(-c2noc(C(=O)NCC3CCCO3)n2)nn(-c2ccccc2)c1=O (stereo not given)	100	.	.	-88
66	C(=N\C(/N=C/c1cccs1)c1cccs1)/c1cccs1	103	144	89	-20
67	Cc1cc(C)cc(NC(=O)C(C)Sc2ccccc2)c1 (stereo not given)	.	115	102	4
68	O=C1C(=Cc2ccccc2)C(=O)c2ccccc21	.	103	103	-6
69	CC1=CC(=O)C(CCCC2=CC(=O)C=CC2=O)=CC1=O	104	89	77	-21
70	O=C(NC1CCCC1)c1cncc(NS(=O)(=O)c2ccc(Cl)cc2)c1	106	.	.	5
71	CC(C)(C)Nc1nc2c(s1)CCCC2	.	123	98	-1
72	Cc1nn(C)c2oc(=O)cc(-c3ccccc3)c12	106	95	98	2
73	Nc1c(-c2nc(-c3ccc(Br)cc3)cs2)nnn1-c1cc(F)ccc1F	110	.	.	-23
74	CCN(CC(=O)NC1CCS(=O)(=O)C1)Cn1nc2c(Cl)cc(Cl)cn2c1=S (stereo not given)	.	91	95	-57
75	COc1ccccc1N1CCN(C(=O)CN(c2ccccc2OC)S(C)(=O)=O)CC1	104&100	98	88	-16
76	CCC1Oc2ccccc2N(CC(=O)NCCc2ccc(OC)c(OC)c2)C1=O (stereo not given)	112	112	98	.
77	COc1cc(-c2nnc(SC(=O)OCc3ccccc3)o2)cc(OC)c1OC	100	88	82	-13
78	CCOCCCNC(=O)c1c(NC(=O)Cc2coc3ccc(C)cc23)sc2c1CCC2	114	99	95	6
79	CC(C)(C)NS(=O)(=O)c1ccc2nc(-c3ccccc3)[nH]c2c1	105	116	67	.
80	CCN1CCN(CCCNC(=O)Cn2c(-c3cccs3)cc3cc(Cl)ccc32)CC1	105	124	107	.
81	COc1ccc(C(CNC(=O)c2oc3ccc(C)cc3c2C)N2CCOCC2)cc1 (stereo not given)	103	111	89	-16
82	COc1cc(C(=O)NCCC(=O)NC2CCC(C)CC2)cc(OC)c1OC (stereo not given)	96	92	88	.
83	Cc1ccc(C(=O)c2coc3ccc(O)c(Cl)c23)cc1	110	92	71	5
84	COC(=O)C1=C(C)NC2=C(C(=O)CCC2)C1c1ccccc1 (stereo not given)	106	85	85	.
85	CCCCNC(=O)C1CCC(CNS(=O)(=O)c2ccc(Cl)cc2)CC1 (stereo not given)	106	95	100	.
86	C/C(=N\NC(=O)Cc1ccccc1)C(c1ccccc1)N1CCOCC1 (stereo not given)	.	105	95	-10
87	COc1ccc2c(c1)c(=O)c(C(=O)c1ccc(Cl)cc1)cn2CC(=O)Nc1ccc2c(c1)OCO2	110	111	73	-18
88	CC(=O)Nc1ccc(S(=O)(=O)NC2=NCN(C(C)C)CN2)cc1	106	105	105	28
89	N#C/C(=C(\O)Cc1ccccc1)c1nc2ccccc2[nH]1	99	118	60	-10
90	CCOC(=O)C1CCN(C(=O)CSc2n[nH]c(-c3ccc(F)cc3)n2)CC1	100	101	90	.
91	Cc1ccc(OCc2cc(=O)n3cc(C)sc3n2)c(C)c1	103	106	87	-14
92	CCC(C)NC(=O)c1ccc2c(c1)CCN2S(=O)(=O)c1ccccc1 (stereo not given)	108	73	83	-20
93	CCOc1cc(C(=O)N(CC(F)(F)F)C(C)C2CC2)ccc1OC (stereo not given)	.	100	94	8
94	CCCC(C)C(=O)Nc1ccc(NC(C)=O)cc1 (stereo not given)	.	88	88	-21

Outcome played no part in choosing rows; about 0.83% have a hit in one of these screens.
